Screens as filed in PubChem.
RE007 growth inh = qHTS Assay for Inhibitors of the HIV-1 protein Vpr | S. pombe RE007 Vpr strain, BacTiter-Glo ATP luminescence, 24 h; control for the full effect not named in the record | Potency, µM (highest dose often 92.2 µM), for inactives: at the top dose activity change, negative = less growth | 0.21% of 360,000 active; active = well fitted falling curve with a large enough effect; inconclusive = small, poorly fitted or top-dose-only effect; inactive = no such curve, though single readings can be large or run the other way;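 also: % is scaled to controls: 0 for no effect and ±100 for the full control effect; nearly all actives have a fitted effect of over 50% in size; the assay follows cell death caused by Vpr and the record does not say whether a fall means rescue or toxicity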
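Fission yeast strain RE007, carrying one chromosomally integrated HIV-1 vpr copy, was seeded at OD 0.01 in PMG+AL medium with 23 nL pinned compound. After 24 h at 30 °C and 99% humidity, viability was read by BacTiter-Glo luminescence.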
Cruzain noTriton = qHTS Assay for Promiscuous and Specific Inhibitors of Cruzain (without detergent). Cruzipain (Trypanosoma cruzi), P25779. 2.3% of 200,000 active. AID 1476, 2009. purified cruzain, Z-FR-AMC fluorescence, no detergent. Potency, µM, inactives show max response, negative = inhibition, usual class: inhibitors;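 also: plate controls were enzyme without inhibitor for no effect and buffer without enzyme for full effect; nearly all actives have a fitted effect of over 40% in size; top concentration of the series not given in the record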
Target sequence (P25779 123-467 limits assumed): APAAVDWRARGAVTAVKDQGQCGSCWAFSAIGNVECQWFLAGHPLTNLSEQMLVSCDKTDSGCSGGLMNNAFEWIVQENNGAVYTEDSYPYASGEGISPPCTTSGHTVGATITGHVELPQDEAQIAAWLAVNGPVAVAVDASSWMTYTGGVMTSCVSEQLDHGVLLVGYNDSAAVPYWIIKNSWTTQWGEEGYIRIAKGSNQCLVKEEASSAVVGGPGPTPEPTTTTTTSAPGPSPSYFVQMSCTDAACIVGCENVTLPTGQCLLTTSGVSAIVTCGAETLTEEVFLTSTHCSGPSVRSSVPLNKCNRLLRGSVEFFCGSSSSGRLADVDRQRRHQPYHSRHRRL
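Purified cruzain at 1.5 nM, pre-incubated 15 min with compound at room temperature in 100 mM sodium acetate pH 5.5, 5 mM DTT, 0.00005% Triton X-100. Reaction started with 2 uM Z-FR-AMC; AMC fluorescence increase over 60 s gives rate.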
Cruzain Triton = qHTS Assay for Promiscuous and Specific Inhibitors of Cruzain (with detergent); Potency, µM, for the others: max response, negative = inhibition, hits mostly inhibitors; AID 1478, 2009; purified cruzain, Z-FR-AMC fluorescence, 0.01% Triton; Cruzipain (Trypanosoma cruzi), P25779; 0.43% of 200,000 active;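 also: plate controls were neutral wells for no effect and buffer without enzyme for full effect; nearly all actives have a fitted effect of over 40% in size; top concentration of the series not given in the record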
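Purified cruzain (1.5 nM final) was preincubated with compounds for 15 min at room temperature in 100 mM sodium acetate pH 5.5, 5 mM DTT, 0.01% Triton X-100. Reaction started with 2 uM Z-FR-AMC; AMC fluorescence change over 60 s gave activity.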
LASV entry inh = qHTS for Inhibitors of binding or entry into cells for Lassa Virus | Lassa virus pseudotype entry inhibition, cell reporter; control for the full effect not named in the record | Potency, µM (titrated, usually from 37.9 µM), without a hit: top-dose activity change, negative = inhibition, most hits filed as inhibitors | 1.2% of 300,000 active | AID 540256, 2011; active means well fitted inhibition curve with a large enough effect; inconclusive means small, poorly fitted or top-dose-only effect, or effect the other way; inactive means flat fitted curve, though single readings scatter; tested in HEK293 cells; also: % is scaled to controls: 0 for no effect and ±100 for the full control effect; nearly all actives have a fitted effect of over 50% in size; luciferase read-out
NS1 function inh = qHTS Assay for Inhibitors of Influenza NS1 Protein Function. 0.4% of 270,000 active. Potency, µM (top dose mostly 46.1 µM), inactives show top-dose activity, positive = more growth. S. cerevisiae slowed by influenza A NS1, growth recovery by OD600; active means well fitted rising curve with a large enough effect; inconclusive means small, poorly fitted or top-dose-only effect; inactive means no such curve, though single readings can be large or run the other way; also: nearly all actives have a fitted effect of over 50% in size
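Compounds were scored for reversing the slow growth caused by influenza A NS1 in S. cerevisiae, measured by optical density at 600 nm. Assay medium contained 2% galactose at pH 6.0; NS1-free yeast of the same strain were the positive control.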
MARV entry inh = qHTS for inhibitors of binding or entry into cells for Marburg Virus; Marburg virus pseudotyped entry inhibition, cell reporter; control for the full effect not named in the record; about a third of the inactives were read at about 46 µM; Potency, µM (series often up to 37.8 µM), for the others: at the highest dose activity change, negative = inhibition, actives largely listed as inhibitors; 1.8% of 300,000 active; AID 540276, 2011; active = well fitted inhibition curve with a large enough effect; inconclusive = small, poorly fitted or top-dose-only effect, or effect the other way; inactive = flat fitted curve, though single readings scatter; tested in HEK293 cells; about a fifth of its hits are not listed in these tables; also: % is scaled to controls: 0 for no effect and ±100 for the full control effect; luciferase read-out
SARS PLP yeast = qHTS of Yeast-based Assay for SARS-CoV PLP | S. cerevisiae expressing SARS-CoV PLpro, growth rescue; control for the full effect not named in the record | Potency, µM (highest dose often 32.9 µM), without a hit: at the highest dose activity, positive = growth rescue | 0.19% of 330,000 active; active means well fitted rising curve with a large enough effect; inconclusive means small, poorly fitted or top-dose-only effect; inactive means no such curve, though single readings can be large or run the other way; also: 0% is about no effect; nearly all actives have a fitted effect of over 55% in size; growth read by luminescence after 48 h
StopGo reporter = High Throughput Screening for Foot and Mouth Disease Virus Antivirals | human cells with a luciferase reporter of 2A StopGo recoding; control for the full effect not named in the record | Potency, µM (series often up to 57.9 µM), for the others: at the highest dose signal change, negative = less light | 1.2% of 410,000 active | AID 1159524, 2015; active = well fitted falling curve with a large enough effect; inconclusive = small, poorly fitted or top-dose-only effect; inactive = no such curve, though single readings can be large or run the other way; tested in HEK293T cells; also: % is scaled to controls: 0 for no effect and ±100 for the full control effect; nearly all actives have a fitted effect of over 45% in size; luciferase light after 4 h
* = called active by the depositor; ? = inconclusive; · = not tested or not shown; & = joins results of further samples; [ ] = another dose, or the depositor's remark. Unless noted, calls follow the shape of the dose curve; as a rule, active = well fitted curve in the direction sought with a large enough effect; inconclusive = small, poorly fitted or top-dose-only effect, or another doubt; inactive = no such curve, though single readings can be large; an effect the other way counts as inactive or inconclusive. Potency is read from the fitted curve at half-maximal effect.

SMILES	RE007 growth inh	Cruzain noTriton	Cruzain Triton	LASV entry inh	NS1 function inh	MARV entry inh	SARS PLP yeast	StopGo reporter
Cc1c(CCNC(=O)C(C)(C)C)sc2nc(-c3ccc(F)cc3)nn12	·	2%	0.4%	-25%[46.1 µM]	·	·	·	?
CC1=C(C(=O)OC2CCCCCC2)C(c2ccc(Cl)cc2Cl)CC(=O)N1 (configuration not stated)	·	0%	-0.4%	-18%[46.1 µM]	·	2%[46.1 µM]	·	-21%
COC(=O)C1=C(C(=O)OC)SC(=C2C(=S)C(C)(C)N(C(=O)C(C)C)c3ccccc32)S1	-8%	-12%	-0.4%	?	-4%	-20%	?	·
Cc1cc2c(c(SCC(=O)NCc3ccc(Cl)cc3)n1)C(=O)OC2	10%	·	·	-15%[46.1 µM]	·	?	0%	9%
COc1ccccc1OCC(=O)NCCS(=O)(=O)N1CCN(c2ccccc2OC)CC1	·	?	-0.5%	-3%[46.1 µM]	·	·	·	-12%
CC(NC(=O)CSc1n[nH]c(=O)[nH]c1=O)C1CC2CCC1C2 (configuration not stated)	3%	·	·	·	1%	-4%	0%	-8%
CCN(c1ccccc1)S(=O)(=O)c1ccc(NC(=S)NC(=O)c2ccc(Br)o2)cc1	-7%	?	-1.5%	?	18%	-4%	-3%	0%
CC(C)NC(=O)CCn1c(SCc2c(F)cccc2Cl)nc2c(sc3ccccc32)c1=O	·	-3%	1.5%	26%[46.1 µM]	·	-18%[46.1 µM]	·	-4%
COC(=O)c1ccccc1NC(=S)NC(=O)c1ccccc1C	-3%	1%	-5.6%	-46%[14.3 µM]	-10%	-17%	-28%	-17%
O=C(c1ccccc1)N(Cc1ccc(F)cc1)Cc1nc2ccccc2c(=O)[nH]1	5%	-15%	-6.7%	-9%	3%	3%	1%	-25%
COC(=O)c1ccccc1NC(=O)COC(C)=O	-1%	2%	-0.5%	-7%	9%	15%	7%	0%
CC(C)NC(=O)Cn1c(=O)nc(-c2ccccc2)c2ccccc21	·	-2%	-2.0%	-5%[46.1 µM]	·	·	·	6%
O/N=C1\CC/C(=N\O)c2nn(-c3ccc(Cl)cc3Cl)nc21	-5%	-4%	-0.4%	6%	-6%	-2%	0%	·
Cc1cccc(OCCCn2c(=O)oc3ccc(C)cc32)c1	3%	·	·	10%	-5%	1%	-1%	-8%
CCOC(=O)CN1NC2(CCC(C(C)(C)C)CC2)NC1=S (configuration not stated)	4%	8%	3.6%	1%	2%	-1%	3%	3%
CCN1CCN(c2ncnc3sc(C(=O)Nc4ccccc4F)c(C)c23)CC1	11%	-8%	-1.9%	9%	3%	?	5%	-18%
Cc1cccc(C)c1NC(=O)CN(C)C(=O)Cc1cccc(C(F)(F)F)c1	12%	·	·	?	4%	4%[46.1 µM]	0%	-24%
COc1cc(OC)cc(C(=O)NCc2ccc(-n3cccc3)cc2)c1	4%	·	·	-12%[46.1 µM]	·	?	-5%	-9%
CC(=O)Nc1ccc(S(=O)(=O)N2CCN(c3cc4c(cc3[N+](=O)[O-])n(C)c(=O)n4C)CC2)cc1	0%	?	-6.9%	-23%[14.3 µM]	-5%	-12%	0%	?
COc1ccc2c(c1)c1c(c(=O)n(-c3ccccc3)c(=O)n1CC(=O)Nc1ccc(F)cc1)n2C	·	7%	0.5%	18%[46.1 µM]	·	·	·	-16%
Cc1ccc(NC(=O)c2ccc(NC(=O)N3CCSc4ncccc43)cc2)c(Cl)c1	·	11%	-8.2%	-7%[46.1 µM]	·	·	·	?
COc1ccccc1CNC(=O)CN(Cc1ccc(Cl)cc1)S(C)(=O)=O	-12%	·	·	?	-1%	?	0%	1%
Cc1nn(C)c(C)c1NC(=O)CCCSc1nc(-c2ccco2)cc(C(F)(F)F)n1	0%	?	-8.1%	-16%	1%	?	-1%	?
Cc1ccc(NC(=O)C(Cc2ccccc2)N2C(=O)C3C4CCC(C4)C3C2=O)cc1Cl (configuration not stated)	2%	?	-2.2%	-5%	-14%	-5%	0%	?
CCOC(=O)c1cn(Cc2ccc(C)cc2)c2cc(F)ccc2c1=O	20%	·	·	·	4%	·	1%	-13%

(next part)
SMILES	RE007 growth inh	Cruzain noTriton	Cruzain Triton	LASV entry inh	NS1 function inh	MARV entry inh	SARS PLP yeast	StopGo reporter
Cc1cccc(N(C)S(=O)(=O)c2nnc(NC(=O)C3CCCCC3)s2)c1	·	-28%	-4.0%	?	·	·	-4%	4%
COc1ccc(NC(=O)CSc2nnc(NC(=O)C3CCC3)s2)c(OC)c1	3%	·	·	-10%[46.1 µM]	28%	-3%[46.1 µM]	1%	-6%
COC(=O)c1ccc(C(=O)OC)c(NC(=O)N2c3ccccc3Sc3ccccc32)c1	16%	?	1.8%	?	6%	-22%	-1%	·
COc1ccccc1C1C=C(c2ccc(C)cc2)Nc2nnnn21 (configuration not stated)	0%	-13%	1.5%	-24%	-2%	2%	-9%	-3%
c1ccc(-n2ncc3c(NCCN4CCOCC4)ncnc32)cc1	10%	-4%	7.2%	?	8%	?	6%	24%
COc1ccc(NC(=O)CCc2nnc3ccc(N4CCC(C)CC4)nn23)cc1OC	-6%	·	·	·	6%	·	-2%	9%
COc1cc(OC)c(NC(=O)c2cnn(-c3cccc(Cl)c3C)c2C2CCN(C(=O)OC(C)(C)C)CC2)cc1Cl	·	6%	-4.8%	?	·	·	·	-17%
CCn1c(SCC(=O)c2c[nH]c3ccccc23)nc2cc(S(=O)(=O)N3CCOCC3)ccc21	0%	?	-3.7%	4%	12%	-36%	-4%	-15%
Cc1ccc(C2C(C(=O)c3cccs3)=C(O)C(=O)N2c2cccc(C)n2)cc1 (configuration not stated)	1%	·	·	15%	0%	?	-2%	-2%
Cc1ccc(S(=O)(=O)N2CCSC2c2ccco2)cc1 (configuration not stated)	4%	-11%	-1.3%	2%	?	1%	-5%	-29%
O=C1CCCCC1CCc1ccncc1 (configuration not stated)	-1%	·	·	25%	·	16%	·	1%
O=C(c1c[nH]c2ccccc2c1=O)N1CCCCCC1	8%	·	·	-3%	-1%	?	-1%	8%
Oc1ccccc1C(=S)N1CCN(C(=S)c2ccccc2O)CC1	-10%	·	·	·	4%	·	-2%	6%
Cc1ccc(C2=N/C(=C\c3cccnc3)C(=O)O2)cc1	-3%	13µM*	14µM*	-7%	?	-2%	11%	9%
COc1ccc(/C=N/NC(=O)c2c(C)nc3ccc(Br)cn23)cc1OC	30%	·	·	?	-2%	?	0%	-15%
O=C(N1CCOCC1)N1CCN(Cc2ccccc2)CC1	1%	-21%	3.9%	-1%	2%	14%	1%	-6%
N/C(=N/O)c1nc(N2CCCCC2)nc(N2CCCCC2)n1	1%	-7%	-12%	0%	-8%	-12%	-14%	?
COC(=O)N/N=C/c1cc(Cl)c(OCc2ccc(F)cc2)c(OC)c1	-1%	-2%	-2.5%	?	23%	?	6%	-20%
Cc1occc1C(=O)NNC(=S)Nc1cccc([N+](=O)[O-])c1	3%	-7%	4.5%	13%	5%	13%	12%	25%
CSc1cccc(NC(=O)CN2CCN(Cc3ccccc3C)S2(=O)=O)c1	·	10%	-8.5%	-8%[46.1 µM]	·	·	·	-1%
COC(=O)CCC(=O)OC1(C)C(=O)C2=COC(c3ccc(OC)cc3)=CC2=C(Br)C1=O (configuration not stated)	?	3%	-0.6%	·	-52%	21%&21%[14.2 µM]	-3%	14%
CCOC(=O)c1c(NC(=O)CSc2ncccn2)sc(C(=O)NC)c1C	6%	·	·	-24%	·	-10%	-9%	?
N#Cc1ccc(NC(=S)NCCN2CCOCC2)cc1	-7%	·	·	6%[46.1 µM]	·	-1%[46.1 µM]	1%	1%
C=CCN(c1ccccc1)S(=O)(=O)c1cccc(C(=O)NNC(=O)c2ccccc2O)c1	2%	·	·	?	·	-16%	?	?
O=C(Cn1cnc2cc([N+](=O)[O-])ccc2c1=O)Nc1ccccc1-c1ccccc1	7%	·	·	·	1%	·	-1%	-17%

(continued)
SMILES	RE007 growth inh	Cruzain noTriton	Cruzain Triton	LASV entry inh	NS1 function inh	MARV entry inh	SARS PLP yeast	StopGo reporter
CC(=O)Nc1ccc(NC(=O)C(Cc2ccccc2)NC(=O)C2CCC(C)CC2)cc1 (configuration not stated)	-20%	-15%	-0.5%	0%	1%	1%	19%	-1%
COCCSc1ccccc1C(=O)Nc1ccc(S(=O)(=O)N2CCOCC2)cc1	1%	·	·	·	-6%	·	-5%	7%
O=C(Nc1cc(-c2nc3cc(Cl)ccc3o2)ccc1Cl)c1ccco1	·	-14%	-0.1%	3%[46.1 µM]	·	?	·	68%[activator]
O=[N+]([O-])c1cc2oc3c(c2c(C=NCc2ccncc2)c1O)CCCC3	?	-7%	-13%	3%	-31%	3%	·	-8%
CC(NC(=O)COC(=O)c1cc(=O)c2ccccc2o1)c1ccccc1 (configuration not stated)	-3%	·	·	?	·	-11%	-17%	-11%
N#C/C(=C\c1ccc(-c2cccc([N+](=O)[O-])c2)o1)C(=O)Nc1nc(-c2cccs2)cs1	-10%	·	·	·	3%	·	-1%	-14%
COCc1cc(C)nc2sc(C(=O)Nc3ccccc3OC)c(N)c12	1%	·	·	10%	2%	?	-5%	8%
COc1ccc(C(=O)NCCS(=O)(=O)NC(C)c2ccccc2)cc1 (configuration not stated)	-5%	·	·	-11%	·	7%[46.1 µM]	5%	6%
Cc1nc2ccc(S(=O)(=O)Nc3ccc(-c4nc5cccnc5s4)cc3)cc2s1	-7%	3%	-7.7%	25%	-12%	34%	-2%	103%[activator]
CCOc1ccc(OCCn2nnc3ccccc3c2=O)cc1	8%	·	·	-17%	·	?	-1%	72%[activator]
Cc1ccccc1NC(=S)NCCSc1ccc(Cl)cc1	-12%	·	·	?	·	?	-4%	13%
CCCNC(=O)c1ccccc1NC(=O)Nc1ccccc1C	-7%	7%	7.1%	0%	-1%	?	-2%	-21%
CCc1ccc[n+](-c2[nH]c(=O)sc2/C=N/NC([S-])=Nc2ccccc2)c1	-23%	-8%	-18%	13%	9%	19%	-79%	-9%
CC1=C[C@H]2Cc3cc(C)cc(C)c3S(=O)(=O)[C@@H]2C=C1	-24%	-15%	-5.5%	1%	10%	-2%	-28%	0%
